HCMV UL50-53 inh = inhibitors of HCMV UL50-UL53 interaction, biochemical, HTRF | inhibition, % (concentration not given with the values) | HCMV UL50-UL53 nuclear egress complex (human cytomegalovirus) | normalized percent inhibition | actives 0.15% (n = 190,000);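 active means both replicates at 50% or more, plus weaker picks with an unusually low signal ratio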;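 further: stock transfer was 100 nL into about 20 µL; 0% = negative control wells and 100% = wells with untagged competitor protein; inactives centre near -12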
* = called active by the depositor; & = joins results of further samples. Some of the compounds tested; the hit share may differ from the screen's.

No.	structure	HCMV UL50-53 inh
1	O=c1/c(=C/c2ccccc2)sc2nc(-c3ccco3)nn12	-0.6
2	O=C(COc1ccc(Br)cc1)OC1CCS(=O)(=O)C1 (stereo not drawn)	-1.4
3	CCCCNC(=O)NS(=O)(=O)c1ccc(CO)cc1	-15.0&-15.0
4	CC(C)NC(=O)COc1ccc2ccccc2c1	-13.9
5	COc1cc(NC(=O)c2ccnc(N)c2)cc(C(=O)Nc2cccc(C(F)(F)F)c2)c1	-11.3
6	CCCS(=O)(=O)NCCc1cc2ccc(C)c(C)c2[nH]c1=O	-0.7
7	CN=C1C=C2C(=NC=NC2=Nc2cccc(Br)c2)C=N1	-4.1
8	O=C(CSc1nc2ccccc2s1)N1CCCCC1	12.9
9	COc1ccc(N=c2oc3ccccc3cc2C(N)=O)cc1	-18.1
10	CC1CN(S(=O)(=O)c2ccc(C3CCCCC3)cc2)CC(C)O1 (stereo not drawn)	-6.3
11	Fc1ccc(CSc2ncnc3ccccc23)cc1	10.0
12	O=C(CCSc1ccccc1)Nc1nc(-c2cccs2)cs1	-17.5
13	COC(=O)NC(C(=O)N1CCCC1c1ncc(-c2ccc(-c3ccc(-c4cnc(C5CCCN5C(=O)C(NC(=O)OC)C(C)C)[nH]4)cc3)cc2)[nH]1)C(C)C (stereo not drawn)	-65.8
14	COC(=O)c1ccc(C(=O)Nc2sccc2C#N)cc1	3.0
15	Cc1cccc(NC(=O)c2ccc3c(c2)CCCC3)n1	7.0
16	O=C(Nc1ccc(Br)cc1)c1cccs1	-0.9
17	N#CC1=C(SCC(=O)NCc2ccccc2)NC(=O)CC1c1ccccc1F (stereo not drawn)	-18.0
18	CCOc1ccccc1-c1ncnc2sc(C)c(C)c12	-11.6&-11.6
19	Cc1ccc(N2C(=O)CC(Nc3ccc(N4CCOCC4)cc3)C2=O)c(C)c1 (stereo not drawn)	-6.2
20	Cn1c(=NC(=O)C2CCCCC2)sc2ccccc21	-12.2
21	O=C(COc1ccccc1)Nc1c2c(nn1-c1ccc(F)cc1)CSC2	-14.2
22	COC(=O)C1=C(NC(=O)C2CCCCC2)CCS1	-4.5&-15.8
23	COC(=O)c1c(NC(=O)C2CCCO2)c2cc(NCc3ccccn3)cnc2n1CCc1ccccc1 (stereo not drawn)	-10.8
24	Cc1ccccc1-c1nnc(NC(=O)c2ccccc2Cl)s1	0.3
25	c1csc(-c2cn3c(n2)SCC3)c1	-26.0
26	Cc1sc2nc(Nc3ccc(S(N)(=O)=O)cc3)sc(=O)c2c1C	3.4
27	CCCOC(=O)c1ccc(NC(=O)C(F)(F)F)cc1	-18.0
28	O=C(Cc1ccccc1)Nc1ccc(S(=O)(=O)N2CCCCC2)cc1	-1.3
29	COCC(=O)Oc1c(Sc2ccc(C)cc2)c(C)nn1-c1ccccc1	-8.0
30	Cc1cccc(-n2nc3c(c2NC(=O)C2CC2)CSC3)c1	1.0
31	CC1CCCC(C)N1C(=O)COc1ccc(Br)cc1 (stereo not drawn)	0.7
32	Cc1cccc(-n2cc(-c3ccn(CC(=O)Nc4ccnn4C)n3)cn2)c1	-8.4
33	CS(=O)(=O)c1ccc2nc(NC(=O)c3cccc(C(F)(F)F)c3)sc2c1	-23.8
34	Cc1ccccc1NC(=O)CSC1=NCCN1	-17.5
35	NC1CCC(Nc2nc(Nc3ccc(S(=O)(=O)N4CCCCC4)cc3)c3ncn(-c4ccccc4)c3n2)CC1 (stereo not drawn)	-2.4
36	CN(C)S(=O)(=O)c1ccc(C(N)=O)cc1	-18.0
37	Cc1nn(C(=O)c2ccco2)c(C)c1Sc1ccccc1	-18.0
38	OC(COc1ccccc1Br)CN1CCN(Cc2ccccc2)CC1 (stereo not drawn)	0.0
39	O=C1CSc2ccc(C(=O)N3CCCCC3)cc2N1	-4.3
40	COc1ccc(C(=O)CSc2nc3ccccc3s2)cc1	-18.7
41	O=C(CN1C(=O)/C(=C\C=C\c2ccccc2)SC1=S)Nc1ccc(F)cc1	-7.2
42	C=C1CCC(O)CC1=CC=C1CCC[C@@]2(C)[C@H]1CC[C@H]2C(C)CCCC(C)(C)O (stereo partly drawn)	-13.6
43	O=C(NC(Cc1ccccc1)C(=O)O)c1cccs1 (stereo not drawn)	-9.4
44	CCc1c(Cl)c(O)c(Cl)c(O)c1C(=O)OC1C(C)OC(OCC2=CC=CCC(O)C(C)=CC(CC)C(O[C@@H]3OC(C)(C)C(OC(=O)C(C)C)C(O)C3O)C(C)=CC(C)=CC[C@H](C(C)O)OC2=O)C(OC)C1O (stereo partly drawn)	4.5
45	CC/C=C\C/C=C\C/C=C\CCCCCCCC(=O)NCCO	-19.1&-19.1
46	O=C(Nc1nc(-c2ccncc2)cs1)c1ccc(Br)s1	2.6
47	N[C@@H](Cc1ccc(OC(F)(F)F)cc1)C(=O)O	-11.0
48	Clc1nc2ccccc2nc1-c1ccccc1	-35.7
49	O=C(O)CSc1nnnn1-c1ccccc1	-10.1
50	COc1cc(C(=O)N2CCC(N3CCN(C)CC3)CC2)ccc1Nc1ncc2c(n1)N(C)c1ccccc1C(=O)N2C	11.5&14.5&9.0&7.1
51	COc1cccc(-n2ccnc2SCC(=O)Nc2ccccc2)c1	-17.4
52	C=C1C(=O)OC2C1CCC(C)=CCC[C@@]1(C)OC21 (stereo partly drawn)	-9.6
53	O=C(O)/C=C/c1ccc2c(c1)CCC2	-23.5
54	N#Cc1ccsc1NC(=O)/C=C/c1ccccc1	-17.7
55	Cc1c(N)c(=O)n(-c2ccccc2)n1C	-20.2
56	CS(=O)(=O)N1CCn2c1nc1ccccc12	-10.5
57	O=C(O)C1=COC(OC2OC(CO)C(O)C(O)C2O)[C@@H]2C(CO)=CC[C@H]12 (stereo partly drawn)	8.3
58	COc1cc(CC2COC(=O)C2Cc2ccc(O)c(OC)c2)ccc1O (stereo not drawn)	-28.8
59	CCCCCCCC(=O)CC[C@@H]1[C@@H](C/C=C\CCCC(=O)O)[C@@H](O)C[C@H]1O	-5.4&-5.4
60	CC(O)[C@@H]1C(=O)N2C(C(=O)O)=C(SC3CNC(CNS(N)(=O)=O)C3)C(C)[C@@H]12 (stereo partly drawn)	-25.8

Continued.
No.	structure	HCMV UL50-53 inh
61	CCOC(=O)c1c(C)n[nH]c1C	-22.4
62	Nc1nc(F)nc2c1ncn2C1OC(COP(=O)(O)O)C(O)C1O (stereo not drawn)	2.5
63	O=C(Nc1ccc(-c2csc(Nc3ccccc3)n2)cc1)c1cc([N+](=O)[O-])cc(C(F)(F)F)c1	-2.4
64	COc1cccc(N/C=C(\C#N)c2ccc(Cl)cc2)c1	-7.0
65	O=C(O)CCC(=O)/C=C/c1ccccc1	-2.1
66	COc1ccc2oc(=O)c(-c3cn4ccccc4n3)cc2c1	-12.7
67	Cc1csc(NC(=O)CCCN2C(=O)/C(=C\c3ccco3)SC2=S)n1	-17.5
68	Nc1c(C(=O)c2ccc(F)cc2)oc2ccccc12	3.8
69	COC(=O)C(C)Oc1ccc2c(-c3ccccc3)cc(=O)oc2c1 (stereo not drawn)	-19.1
70	COC(=O)CC(NC(=O)C(C)NC(=O)C(NC(=O)OCc1ccccc1)C(C)C)C(=O)CF (stereo not drawn)	-12.9
71	CCOC(=O)c1c(C)[nH]c(C(=O)CC#N)c1C	8.0
72	Cc1ccc(NC(=O)CSc2nc3c(cc2C#N)C(=O)CC(C)(C)C3)cc1	-15.6
73	CSc1ncnc2sc3c(c12)CCCC3	-1.6
74	CC(C)C(=O)Nc1nnc(C23CC4CC(CC(C4)C2)C3)s1	-17.5
75	COC(=O)CCC(=O)Nc1ccc(-c2nc3ccc(C)cc3s2)cc1	13.1
76	CCOC(=O)C12CC1/C(=N\O)c1ccccc1O2 (stereo not drawn)	6.6
77	Cc1cccc(OCC(O)CN2CCc3ccccc3C2)c1 (stereo not drawn)	-4.7
78	O=C1CCCC2=C1C(c1ccc(Br)cc1)n1ncnc1N2 (stereo not drawn)	-1.0
79	O=C(Nc1nc(-c2csc(NC(=O)C3CC3)n2)cs1)C1CC1	-10.3
80	Cn1c(=O)c(O)c(O)c2ccccc21	-14.4
81	CCCN1C(=O)/C(=C2/C(=O)N(Cc3ccc(C)cc3)c3ccccc32)SC1=S	-3.3
82	Cc1cc(O)c(C=Nc2cccc(F)c2)c(=O)o1	-6.5
83	O=C1NC(=Nc2ccccc2)SC1Cc1ccccc1Cl (stereo not drawn)	-29.7
84	CN(C)C(=O)CSc1nc(-c2ccccc2)nc2c1CCCC2	-0.1
85	CC(=O)Nc1ccc(S(=O)(=O)NCc2ccccn2)cc1	-1.7
86	CC(=Nc1ccccc1N)c1c(C)cc(=O)n(O)c1O	-18.9
87	O=S(=O)(N=C1SCCS1)c1ccccc1	-10.7
88	O=C(Nc1ccccc1)c1cc2ccccc2c(=O)s1	-23.1
89	CC(=O)Oc1ccc2c(-c3ccccc3)cc(=O)oc2c1	-39.5
90	COC(=O)c1c(NC(=O)c2ccc(OC)cc2)sc2c1CCN(C)C2	-22.7
91	O=S(N1CCCCCC1)C12CC3CC(CC(C3)C1)C2 (stereo not drawn)	-10.7
92	COc1ccc(Cc2cnc(NC(=O)Cc3ccccc3)s2)cc1	3.1
93	Cc1ccc(-c2nn(CCC#N)cc2CO)cc1	-3.7
94	O=C(CSc1nc2scc(-c3ccccc3)c2c(=O)[nH]1)c1ccccc1	3.1
95	O=C(c1ccccc1)c1nccn1-c1ccc(Cl)nn1	-19.6
96	C=CC(=O)Nc1ccc(CN2C(=O)N(c3c(Cl)c(OC)cc(OC)c3Cl)Cc3cnc(NCCCCN(CC)CC)nc32)cc1	-9.9
97	Cc1cccnc1/N=C/c1c(O)c2ccccc2oc1=O	-11.6
98	CN(C)c1cc(NC(=O)CNC(C)(C)C)c(O)c2c1C[C@H]1C[C@@H]3C(C(=O)C(C(N)=O)=C(O)[C@H]3N(C)C)C(=O)C1=C2O (stereo partly drawn)	-61.7
99	C(=Nc1ccccc1)c1ccc2c(c1)OCO2	-3.9
100	Cc1nnc(SCc2ccc(C(=O)c3ccc(F)cc3)cc2)[nH]c1=O	-5.6
101	Cc1cc(C)c(CN[C@@H](C)C(C)C)c(C)c1CO	-25.3
102	NC(=NC(=O)CCn1c(=O)oc2ccccc21)c1ccc(C(F)(F)F)cc1	-5.6
103	CCCC(=O)Nc1nnc(SCC(=O)Nc2ccc(C)cc2C)s1	-20.2
104	O=C(c1ccc(-c2nc3ccccc3s2)s1)N1CCCCC1	-11.5
105	CC1(C)CCC(CN2CCN(c3ccc(C(=O)NS(=O)(=O)c4ccc(NCC5CCOCC5)c([N+](=O)[O-])c4)c(Oc4cnc5[nH]ccc5c4)c3)CC2)=C(c2ccc(Cl)cc2)C1	-3.6
106	CCOC(=O)c1c(C)c(C(=O)Nc2ccc(C)cc2)c(C)n1C	3.0
107	COc1cccc2cc(C(=O)N3CCN(c4ccccc4)CC3)c(=O)oc12	-25.1
108	Clc1ccc(-c2ncc3ccccn23)c(Cl)c1	-68.4
109	CCCCc1cn(C2CCN(C(=O)[C@@H]3CCCO3)CC2)nn1	-23.7
110	Cc1cccc(C)c1OCC(O)CN1CCN(c2ccccc2)CC1 (stereo not drawn)	-14.3
111	C=CCOc1cccc(C2C(C(=O)c3cccs3)=C(O)C(=O)N2CCN(C)C)c1 (stereo not drawn)	-4.3
112	N#Cc1cnn(-c2nc3ccccc3s2)c1N	7.6
113	Brc1cccc(-c2nc3ccccc3[nH]2)c1	-1.4
114	O=C(NC(Sc1ccncn1)C(=O)c1ccccc1)c1ccccc1 (stereo not drawn)	-28.6
115	CC(=O)N(c1ccccc1)C1SC(=O)N(c2ccc(C)cc2)C1=O (stereo not drawn)	-2.5
116	COc1ccc(SC(=O)c2cc(C)n(Cc3c(Cl)cccc3Cl)n2)cc1	-8.9
117	N[C@@H](CSS(=O)(=O)O)C(=O)O	7.6
118	COc1cc2oc(=O)c3c(c2cc1Cl)CCC3	-14.7
119	CCCCC[C@H](O)/C=C/[C@H]1C=CC(=O)[C@H]1CCCCCCC(=O)O	-0.2&-0.2
120	CNC(=O)/C(=C\c1ccco1)NC(=O)c1ccccc1	-29.4

(next part)
No.	structure	HCMV UL50-53 inh
121	N=C(N)c1ccc(N=NNc2ccc(C(=N)N)cc2)cc1 (tested in a mixture with another compound)	-52.4&-96.2
122	CC(=O)OCOC(c1ccc2ccccc2c1)P(=O)(OCOC(C)=O)OCOC(C)=O (stereo not drawn)	-16.4
123	O=C(CC1=CCCCC1)N1CCc2c(cc(-c3cccc(F)c3)c(=O)n2CCN2CCCCC2)C1	0.2
124	CC(C)(C)n1nc(-c2cccc3ccccc23)c2c(N)ncnc21	-9.8
125	CN1C(=O)N(CCCc2ccncc2)C(=O)C12CCN(C1CCSCC1)CC2	-6.3
126	C=CCn1nc(C(=O)N2CCSCC2)c2c1CCC(NCCCSC)C2 (stereo not drawn)	-12.7
127	Cc1nc(-c2cccc(NC(=O)c3cc4ccccc4oc3=O)c2)cs1	-11.9
128	O=C(CSc1nccn1-c1ccc(Cl)cc1)Nc1ccccc1F	9.8
129	CCOc1cc(/C=C2/SC(=S)N(C(C(=O)O)c3ccccc3)C2=O)ccc1O (stereo not drawn)	-71.7
130	O=C1NC(=Nc2cccc(Cl)c2)S/C1=C/c1cccs1	-3.1&-3.1
131	CCOc1cccc2cc(C(=O)Nc3ccc(Cl)cc3Cl)c(=O)oc12	-15.6
132	CSc1nnc(-c2c[nH]c3ccccc23)n1-c1ccc(F)cc1	-2.0
133	ClC1(Cl)CC1Cn1cnc2ccccc21 (stereo not drawn)	-11.8

Sorted by SMILES length (ascending): part of the list above
No.	structure	HCMV UL50-53 inh
124	CC(C)(C)n1nc(-c2cccc3ccccc23)c2c(N)ncnc21	-9.8
125	CN1C(=O)N(CCCc2ccncc2)C(=O)C12CCN(C1CCSCC1)CC2	-6.3
129	CCOc1cc(/C=C2/SC(=S)N(C(C(=O)O)c3ccccc3)C2=O)ccc1O (stereo not drawn)	-71.7
